PrP UTR inh = inhibition of PrP 5' UTR reporter expression. cell-based PrP 5' UTR mRNA reporter, plate reader. inhibition, % (concentration not given with the values). actives 0.35% (n = 340,000). AID 488862;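 active = every replicate at 50% or more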;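 note: 0 = median of the neutral control wells; tested in H4 reporter cells; numbers are from one replicate; inactives centre near -14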
Bead autofluor = flagged as autofluorescent in microsphere protease counterscreen; compound autofluorescence counterscreen, microsphere flow cytometry; active compounds read high; fluorescence intensity (concentration not given with the values); actives 3.1% (n = 360,000); AID 624483;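 active = at least 3 SD above the mean of all compounds, about 16000 in these data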;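 note: 100 nL of 1 mM stock went into each well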
Numbers without * were called inactive. The list is partial; count on the stated rates, not on these rows.

SMILES	PrP UTR inh	Bead autofluor
O=C(NCCCc1ccccc1)c1cccc(NC(=O)C2CCCCC2)c1	9	2928
COc1cc([C@@H]2CC=C(C(=O)O)[C@H](c3cccc(Cl)c3)N2S(=O)(=O)c2ccc(C)cc2)cc(OC)c1OC	-20	4276
CC(CCN1C(N(C)C)=NC[C@@H]1C)c1ccccc1 (some centres undefined)	-10	3228
O=C(OCCn1c(=S)sc2ccccc21)c1ccccc1	33	3009
C=CC[C@@H](CC(=O)N[C@H](CO)Cc1ccccc1)C(=O)NC[C@H](OC(=O)[C@@H](CC=C)Cc1ccc(F)cc1)c1ccccc1	-11	4269
Cc1ccc2c(Cl)c(C)c(N3CCOCC3)nc2n1	-8	3771
COC(=O)C1=C(C)N(Cc2ccccc2)C(=NCc2ccco2)N[C@H]1c1cccc(F)c1	-1	4589
CCN1C[C@@H]2[C@@H]3C(=O)N(C)C(=O)[C@@H]3[C@](C)(C1=O)N2C(=O)c1ccc(C(C)(C)C)cc1	-16	4245
Cc1ccc(OCCNC(=O)CNC(=O)c2ccc(Cl)c([N+](=O)[O-])c2)cc1	-14	2904
CCC(CC)n1c(C)cc(=O)n1C(CC)CC	-16	3586
COC1/C=C/C=C(\C)Cc2cc(O)c(Cl)c(c2)N(C)C(=O)CC(OC(=O)C(C)C)C2(C)OC2C(C)C2CC1(O)NC(=O)O2 (centres undefined)	50	3945
O=c1cc(-c2ccc(O)c(O)c2)oc2cc(O)c([C@@H]3O[C@H](CO)[C@@H](O)[C@H](O)[C@H]3O)c(O)c12	-13	3184
O=C(Nc1cc(S(=O)(=O)N2CCCC2)ccc1Cl)c1ccncc1	-22	3161
C#CCOCCOCCOCCNc1nc(OC)nc(N2CCN(C(=O)[C@H](CCC(=O)O)n3cc(C(N)CO)nn3)CC2)n1 (some centres undefined)	1	3987
CCN(C(=O)CN1C(=O)NC(c2ccccc2)(c2ccc(C)c(C)c2)C1=O)C1CCS(=O)(=O)C1 (centres undefined)	-12	2850
CC(=O)c1ccc(OC(=O)Oc2ccc(C(C)=O)cc2)cc1	27	13106
C[C@H](CO)N1C[C@H](C)[C@@H](CN(C)S(C)(=O)=O)Oc2c(NC(=O)Nc3ccccc3)cccc2C1=O	-8	2779
O=C1C=C(c2ccc(-c3ccccc3)cc2)C[C@@H](c2ccc(F)cc2)C1	-19	3801
C=C1C(=O)OC2CC(C)C3C=CC(=O)C3(C)C(O)C12 (centres undefined)	26	4731
COc1ccc([C@H]2CC(=O)C=C(c3ccc4cc[nH]c4c3)C2)cc1	2	5318
C[C@H](CO)N1C[C@H](C)[C@@H](CN(C)C(=O)Nc2ccc(C(F)(F)F)cc2)Oc2c(NS(=O)(=O)c3cccs3)cccc2C1=O	-15	3832
COc1cc(CNCc2ccncc2)ccc1OCC(N)=O	-19	3780
CN1c2ccsc2/C(=N/Nc2ccc(F)cc2)CS1(=O)=O	-44	4169
O=C1/C(=C/c2ccccc2)CN(C(=O)CCN2CCOCC2)C/C1=C\c1ccccc1	-23	3119
COC(=O)C1=C(C)N(Cc2ccccc2)C(=NCCN2CCOCC2)N[C@H]1CCc1ccccc1	-12	4169

Later entries:
SMILES	PrP UTR inh	Bead autofluor
CC[C@H](C)[C@H]1CNC(=S)N1CC1CCN(CCC23CC4CC(CC(C4)C2)C3)CC1	-19	3932
COc1ccc([C@H]2CC(=O)C=C(c3cccc(OC(F)(F)F)c3)C2)cc1	-9	3871
CC(C)(C)OC(=O)N1CCC(C(=O)Nc2ccc(C(=O)NCCc3ccccc3)cc2)CC1	-1	2985
COc1cc(/C=C/CNC[C@H]2O[C@@H](n3ccc(=O)[nH]c3=O)[C@H](O)[C@@H]2O)ccc1O	-13	4213
Cn1c(=O)c2[nH]c(C(O)c3ccc(Cl)cc3)nc2n(C)c1=O (centres undefined)	21	3088
CN(C(=O)c1cccc(NC(=O)Cc2cccc(NC(=O)C3CCN(C(=O)C4CC4)CC3)c2)c1)C1CCC1	-17	3987
COc1ccc(/C=C2/CCC(CN3CCOCC3)C2=O)cc1 (centres undefined)	52	4288
COc1ccc(C2(CO)OC(CO)C(O)C2O)cc1 (centres undefined)	3	2918
CC(Nc1ccc([N+](=O)[O-])cc1[N+](=O)[O-])c1ccccc1 (centres undefined)	-19	3079
CCCC1CCCCC12C(=O)NC(=O)NC2=O (centres undefined)	-10	3983
Oc1ccc2ccccc2c1C=NNc1ccccn1	-22	2776
CC[C@]12C(=O)N(C)C[C@H]([C@@H]3C(=O)N(C)C(=O)[C@@H]31)N2C(=O)c1ccc(C)cc1	-12	4250
COc1ccc2c(C)cc(=O)oc2c1	-20	5758
O=C1c2ccc(-c3nc4ccccc4o3)cc2C(=O)N1Cc1ccccc1	-13	9066
CCN1C[C@@H]2[C@@H]3C(=O)N(Cc4ccccc4)C(=O)[C@@H]3[C@](Cc3ccccc3)(C1=O)N2C(=O)c1ccc(C)cc1	-25	4278
Cc1cn(CC(=O)NCC2CCCO2)c(=O)[nH]c1=O (centres undefined)	1	3011
COc1ccc2c(c1)OC[C@H]1[C@H]2N2C(=O)c3ccccc3NC(=O)[C@@]2(C)[C@H]1c1ccccc1	-12	3656
O=C(NNc1ccccc1)NC(Cc1ccccc1)C(=O)O (centres undefined)	-21	3467
C#CCOCCOCCOCCNc1nc(N2CCN(C(=O)Cn3cc(CCO)nn3)CC2)nc(N2CCN(C(=O)[C@H](CCCCN)n3cc(CCCC)nn3)CC2)n1	-23	3696
COc1ccc(CC2C(=O)NC(C)C(=O)N(C)C3C(=O)N(C)C(Cc4ccc(O)c(c4)Oc4ccc(cc4)C3O)C(=O)NC(C)C(=O)NC(C)C(=O)N2C)cc1 (centres undefined)	53*	3245
NC(N)=N/N=C(\N=Nc1ccccc1)c1ccc(Cl)cc1	-48	3587
C=CCC[C@@H](Cc1ccc(F)cc1)C(=O)OC[C@H](Cc1c[nH]c2ccccc12)NC(=O)[C@H](CC=C)CC(=O)NCCO	-22	4027
C#CCOCCOCCOCCNc1nc(N2CCN(C(=O)CCCCCCCCCCNC(=O)[C@H]([C@@H](C)CC)n3cc(CCCCCN)nn3)CC2)nc(N2CCN(C(=O)CCCCCCCCCCNC(=O)[C@H]([C@@H](C)CC)n3cc(CCCCN=C(N)N)nn3)CC2)n1	-2	3328
CCOc1ccccc1OCCCC(=O)ON=C(N)c1ccccc1	-10	3632
CC1(C)NC(=O)N(CC(=O)OCC(=O)Nc2c(Br)cc([N+](=O)[O-])cc2Br)C1=O	-6	3953

(next part)
SMILES	PrP UTR inh	Bead autofluor
CC(C)NC(=O)N(C)C[C@@H]1Oc2ccc(NC(=O)CCN3CCOCC3)cc2CC(=O)N([C@@H](C)CO)C[C@@H]1C	-13	4282
C[C@H](CO)N1C[C@H](C)[C@@H](CN(C)S(=O)(=O)c2cccs2)Oc2c(NC(=O)C3CC3)cccc2C1=O	-14	4133
CC(=NNC(=S)N1CCCCC1)c1cccc(C)n1	11	3760
C=C1CC(Cn2cc(Br)c(=O)[nH]c2=O)(c2ccc(-c3ccccc3)cc2)OC1=O (centres undefined)	61*	2885
C#CCN1[C@@H]2CCN(C2)c2cc(Br)ccc2S1(=O)=O	1	3389
CCN(CC)CCNc1ccc(C)c2sc3ccc(O)cc3c(=O)c12	-13	3061
O=C(NN=Cc1c(O)ccc2ccccc12)c1ccncc1	44	3009
CCOc1ccc2c(c1)C(C)=CC(C)(C)N2	-9	5133
CCOC(=O)CC1(C)NC(C(=O)O)C(C)(C)S1 (centres undefined)	-29	2888
C#CCOCCOCCOCCNc1nc(N2CCN(C(=O)CCCCCCCCCCNC(=O)[C@@H](CCSC)n3cc(CCO)nn3)CC2)nc(N2CCN(C(=O)CCCCCCCCCCNC(=O)[C@@H]([C@H](C)O)n3cc(C)nn3)CC2)n1	-24	3479
COc1cc(C=c2c3ccccc3n3c2cc(-c2ccccc2)[n+]3C)cc(OC)c1OC	-17	2785
CN1C(=O)C(CC#N)(C2(CC#N)C(=O)N(C)c3ccccc32)c2ccccc21 (centres undefined)	-6	3122
C/C(=N\NC(=O)c1ccc(-n2cnnn2)cc1)c1ccc(C)cc1	-2	3768
O=C(O)C(Cc1ccc(O)c([N+](=O)[O-])c1)N1C(=O)c2ccccc2C1=O (centres undefined)	-8	4111
CN(C)CC1CCC/C(=C\c2ccc(OC(=O)/C=C/c3ccc(Cl)c(Cl)c3)cc2)C1=O (centres undefined)	-9	3088
O=C(OCc1ccccc1)N1CCC2CC1c1cc(N3CCCCC3)ccc12 (centres undefined)	-13	3596
O=C(Nc1ccnn1C1CCNCC1)c1ccc2c(c1)OCO2	-4	4081
OCC[C@H]1C[C@H](O)[C@@H](O)[C@]2(CCCc3ccccc3O2)O1	-7	4040
CC1CC=CCC1(CO)CO (centres undefined)	-3	3118
CC1([N+](=O)[O-])COP(=O)(NCc2cccnc2)OC1 (centres undefined)	-17	4014
CC(C)C[C@@H]1CN=C(N)N1C[C@@H]1CCCN1C[C@H](C)N1C[C@@H](Cc2ccccc2)N(CCCC2CCCC2)C1=N	-4	4843
CC(C)(C)OC(=O)NCc1ccc(NC(=O)c2nc[nH]c2C(=O)NCCCNC(=O)c2[nH]cnc2C(=O)Nc2ccc(CNC(=O)OC(C)(C)C)cc2)cc1	22	3087
O=C(NCc1ccccc1)c1ccc(NC(=O)C2CCCC2)cc1	-8	3855
COc1cccc(/C=N/NC(=S)Nc2cccc(C(=O)O)c2)c1O	20	2503
C[C@H](CO)N1C[C@H](C)[C@@H](CN(C)C(=O)NC2CCCCC2)Oc2ccc(NC(=O)Nc3ccccc3)cc2C1=O	-10	3744

(more compounds)
SMILES	PrP UTR inh	Bead autofluor
COC(=O)C1=C(c2ccc(-c3ccccc3)c(F)c2)C[C@@H]2CC[C@H]1N2C(=O)NCCc1ccccc1	-6	2890
C[C@H]1CN([C@@H](C)CO)C(=O)c2cccc(NC(=O)C3CC3)c2O[C@H]1CN(C)CC1CCCCC1	-5	3440
O=C1OC[C@@H]2CCCN2C(=O)[C@@H](CC(=O)N(CCO)Cc2ccccc2)C/C=C\C[C@@H]1Cc1ccc(F)cc1	-14	3786
CC1CCCCC12NC(=O)N(CC(=O)N1CCN(c3ncccn3)CC1)C2=O (centres undefined)	-1	3671
C#CCOCCOCCOCCNc1nc(N2CCN(C(=O)Cn3cc(CC(C)O)nn3)CC2)nc(N2CCN(C(=O)[C@H]([C@@H](C)CC)n3cc(CCCCN)nn3)CC2)n1 (some centres undefined)	-18	3841
Cc1cc(C)c2c(ccc3ccccc32)n1	-30	4119
CCN(CC)CCNC(=O)c1nn(-c2ccc(Cl)cc2)c2c1CCc1cc(OC)ccc1-2	-9	3608
CCC(Oc1ccccc1)C(=O)N1CCN(S(=O)(=O)c2ccccc2)CC1 (centres undefined)	-7	3788
O=C1CC(N2CCN(S(=O)(=O)c3ccccc3F)CC2)C(=O)N1c1ccccc1F (centres undefined)	-6	3872
COC(=O)C1=C(c2ccc(OC)c(OC)c2)C[C@@H]2CC[C@H]1N2C(=O)NCCNC(C)=O	3	3105
Cc1cccc(-c2oc3ccc(-c4ccc5c(c4)OCO5)cc3c2C#Cc2cncn2C)c1	-14	4018
C=CCCC1(CC(C)C)C(=O)NC(=S)NC1=O	91*	3999
C[C@@H](O)[C@H]1O[C@]2(C)CCC[C@H]1O2	-22	3892
COC(=O)c1ccccc1-c1c2ccc(=N)cc-2oc2cc(N)ccc12	-6	34738*
CSC(=Nc1ccccc1)N=C(SCc1ccccc1)N(C)C	74*	3767
COc1ccc([C@H]2CC(=O)C=C(c3ccccc3OC)C2)cc1OC	5	4128
COc1cccc(C2=CC(=O)C(C(C)(C)C)N2C(C)(C)C)c1 (centres undefined)	-4	3639
COC(=O)C1=C(c2ccc(F)cc2OCc2ccccc2)C[C@@H]2CC[C@H]1N2C(=O)NCc1cccc(C(F)(F)F)c1	-5	3933
CCOC(=O)[C@H]1[C@H]2COc3ccc(Cl)cc3[C@@H]2N2C(=O)c3cc(F)ccc3NC(=O)[C@@]12C	-17	2732

A second format for some results above:
| compound | PrP UTR inh | Bead autofluor |
| --- | --- | --- |
| COc1cccc(/C=N/NC(=S)Nc2cccc(C(=O)O)c2)c1O | 20 | 2503 |
| C[C@H](CO)N1C[C@H](C)[C@@H](CN(C)C(=O)NC2CCCCC2)Oc2ccc(NC(=O)Nc3ccccc3)cc2C1=O | -10 | 3744 |
| COC(=O)C1=C(c2ccc(-c3ccccc3)c(F)c2)C[C@@H]2CC[C@H]1N2C(=O)NCCc1ccccc1 | -6 | 2890 |
| C[C@H]1CN([C@@H](C)CO)C(=O)c2cccc(NC(=O)C3CC3)c2O[C@H]1CN(C)CC1CCCCC1 | -5 | 3440 |
| O=C1OC[C@@H]2CCCN2C(=O)[C@@H](CC(=O)N(CCO)Cc2ccccc2)C/C=C\C[C@@H]1Cc1ccc(F)cc1 | -14 | 3786 |
| CC1CCCCC12NC(=O)N(CC(=O)N1CCN(c3ncccn3)CC1)C2=O (centres undefined) | -1 | 3671 |
| C#CCOCCOCCOCCNc1nc(N2CCN(C(=O)Cn3cc(CC(C)O)nn3)CC2)nc(N2CCN(C(=O)[C@H]([C@@H](C)CC)n3cc(CCCCN)nn3)CC2)n1 (some centres undefined) | -18 | 3841 |
| Cc1cc(C)c2c(ccc3ccccc32)n1 | -30 | 4119 |
| CCN(CC)CCNC(=O)c1nn(-c2ccc(Cl)cc2)c2c1CCc1cc(OC)ccc1-2 | -9 | 3608 |
| CCC(Oc1ccccc1)C(=O)N1CCN(S(=O)(=O)c2ccccc2)CC1 (centres undefined) | -7 | 3788 |
| O=C1CC(N2CCN(S(=O)(=O)c3ccccc3F)CC2)C(=O)N1c1ccccc1F (centres undefined) | -6 | 3872 |
| COC(=O)C1=C(c2ccc(OC)c(OC)c2)C[C@@H]2CC[C@H]1N2C(=O)NCCNC(C)=O | 3 | 3105 |
| Cc1cccc(-c2oc3ccc(-c4ccc5c(c4)OCO5)cc3c2C#Cc2cncn2C)c1 | -14 | 4018 |
| C=CCCC1(CC(C)C)C(=O)NC(=S)NC1=O | 91* | 3999 |
| C[C@@H](O)[C@H]1O[C@]2(C)CCC[C@H]1O2 | -22 | 3892 |
| COC(=O)c1ccccc1-c1c2ccc(=N)cc-2oc2cc(N)ccc12 | -6 | 34738* |
| CSC(=Nc1ccccc1)N=C(SCc1ccccc1)N(C)C | 74* | 3767 |
| COc1ccc([C@H]2CC(=O)C=C(c3ccccc3OC)C2)cc1OC | 5 | 4128 |

Screening data (PubChem BioAssay)
